# Screening results from PubChem.
# Polio RdRp inh: inhibitors of poliovirus RNA polymerase binding and polymerization; hit rate 0.66% among 150,000; P03300; poliovirus polymerase elongation, fluorescence polarization; active compounds read low; % elongation, % (compound at 16.7 µg/mL); in the data active means % elongation below about 90%; further: some results filed as inactive read as strong as hits
# Mtb MenB inh: Mtb MenB enzyme inhibition. P9WNP5. MenB enzyme assay, absorbance read-out; some hits fall short of the stated cut. inhibition, %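 (about 12 µg/mL by stock and volumes)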. hit rate 0.43% among 100,000;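 active means mean of two replicates above 30%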;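 further: 0% = no compound and 100% = wells with inactive enzyme; the first replicate is given; strong numbers were not always called active; inactives centre near -10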
# Target sequence (P9WNP5 whole entry, looked up): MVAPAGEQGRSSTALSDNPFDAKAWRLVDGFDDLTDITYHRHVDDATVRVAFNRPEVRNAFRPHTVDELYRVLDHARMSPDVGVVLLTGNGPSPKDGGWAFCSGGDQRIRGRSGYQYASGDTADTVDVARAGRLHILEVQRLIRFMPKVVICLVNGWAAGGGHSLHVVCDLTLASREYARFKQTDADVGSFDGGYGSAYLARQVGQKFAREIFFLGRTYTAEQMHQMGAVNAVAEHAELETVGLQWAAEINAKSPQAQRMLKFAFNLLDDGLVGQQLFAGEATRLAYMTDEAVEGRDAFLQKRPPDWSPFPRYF
# MbtI inh: MbtI salicylate synthase inhibition; P9WFX0; purified MbtI enzyme, fluorescence intensity read-out; inhibition, %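 (about 17 µg/mL by stock and volumes)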; hit rate 0.89% among 100,000;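 active means above 50% in both replicates, above 80% if mildly self-fluorescent; inactive means the rest, strongly fluorescent compounds included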;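 further: 0% = mean of negative and 100% = mean of positive controls; one replicate is shown; some compounds called inactive have numbers as strong as hits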
# Target sequence (P9WFX0 whole entry, looked up): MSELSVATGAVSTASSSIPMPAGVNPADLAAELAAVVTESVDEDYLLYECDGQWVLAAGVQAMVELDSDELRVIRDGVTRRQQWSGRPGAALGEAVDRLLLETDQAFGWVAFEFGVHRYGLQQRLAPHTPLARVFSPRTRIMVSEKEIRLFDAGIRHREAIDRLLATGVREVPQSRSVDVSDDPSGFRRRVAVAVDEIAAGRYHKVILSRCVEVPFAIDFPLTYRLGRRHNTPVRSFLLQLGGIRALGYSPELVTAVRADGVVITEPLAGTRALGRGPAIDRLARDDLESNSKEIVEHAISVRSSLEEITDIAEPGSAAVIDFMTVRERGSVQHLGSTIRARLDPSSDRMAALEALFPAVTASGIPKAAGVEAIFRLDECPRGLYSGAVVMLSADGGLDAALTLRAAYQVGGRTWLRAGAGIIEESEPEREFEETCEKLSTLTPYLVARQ
# Polio RdRp inh intensity: second read-out of Polio RdRp inh, no call of its own (marks repeat the call); % elongation; measured here: total intensity read-out; formula for this scale not given here;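 total fluorescence in place of polarization; lower means less elongation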
# Active calls of the source: *; / = not tested or not shown.
SMILES,Polio RdRp inh,Polio RdRp inh intensity,Mtb MenB inh,MbtI inh
O=C(c1ccccc1F)n1c2c(c3ccccc31)CCCC2,103,97,-13,4
NC(=O)C1CCN(Cn2c(SCc3ccccc3)nc3ccccc32)CC1,102,107,-7,3
CCOC(=O)c1sc(-n2[nH]c(C)cc2=O)nc1C,99,103,-88,/
CCOc1ccc2ccccc2c1C=C1C(=O)N(C)C(=S)N(C)C1=O,102,105,-2,-4
CCc1c(O)nc(N)[nH]c1=O,101,103,3,-2
COc1ccc(C2=NS(=O)(=O)N(C)C(C(=O)N3CCC(C(N)=O)CC3)=C2)cc1,105,93,-38,3
CCc1ccc(NC(=O)NC(C)c2c(-n3cccc3)sc3c2CCCC3)cc1 (configuration not stated),102,98,-5,22
CCCCN(C)C(=O)Cn1c(=O)oc2ccccc21,100,102,8,-12
O=C(O)CC1(CC(=O)Nc2ccc(Cl)cc2)CCCC1,102,107,-9,2
CCCn1c(C(O)(c2c(C)nn(CCO)c2N)C(F)(F)F)nc2ccccc21 (configuration not stated),98,96,-11,-1
COc1ccccc1C1(CC(=O)O)CCOC(C)(C)C1 (configuration not stated),104,97,4,-35
CCOC(=O)c1oc2ccc(Br)cc2c1CSc1nc2ccccc2c(=O)[nH]1,101,110,-13,-9
O=c1cccc2n1CC1CNCC2C1 (configuration not stated),98,101,-6,26
Cc1c(-c2ccnn2C(=O)c2ccc(C(F)(F)F)cc2)sc2ccccc12,101,106,-15,23
Cc1nnc2c(NCCN3CCN(c4cccc(Cl)c4)CC3)nc3ccccc3n12,100,102,-2,13
COc1ccc(-n2nc(C(=O)N3CCN(C)CC3)nc2-c2ccccc2)cc1,105,107,-34,-6
c1ccc(OCc2nnc3n2N=C(c2ccccc2)CS3)cc1,93,94,-41,84*
O=C(OCCSC1=NS(=O)(=O)c2ccccc21)c1ccccc1,102,97,27,/
CCOC(=O)c1cc(C#N)c(SC)nc1-c1ccccc1,101,100,-7,65
CCOC(=O)c1ccc(-c2ccc(C=C(C#N)C#N)o2)cc1,78,190,-49,-55
COc1cccc(NC(=O)c2cc3ccccc3oc2=O)c1,108,109,-11,/
CCC(C(=O)NC1CCCC1)N(Cc1ccc2c(c1)OCO2)C(=O)c1snc(C(N)=O)c1N (configuration not stated),100,102,18,-32
Cc1sc2nc(CN3CCC(C)CC3)[nH]c(=O)c2c1C,111,119,-1,-5
CCOC(=O)CN(c1ccc(C)cc1)C1SC(=O)N(Cc2cccc(C(=O)O)c2)C1=O (configuration not stated),101,104,6,7
CC(C)c1ccc2c(c1)c1c3c(cncn32)CCC1,100,155,-23,/
# (continued)
SMILES,Polio RdRp inh,Polio RdRp inh intensity,Mtb MenB inh,MbtI inh
OC(COC(c1ccc(Cl)cc1)c1ccc(Cl)cc1)CN1CCCC1 (configuration not stated),101,99,/,-7
CN(C)c1ncnc2c1cnn2C,101,101,9,7
CSc1nc2ccccc2n1CC(=O)Nc1c(C)cccc1C,103,101,-6,-6
CNc1sc(C(=O)c2ccc(OC)c(OC)c2)c(N)c1C#N,102,103,-6,-5
C1CCC(CNCC2CCCO2)CC1 (configuration not stated),101,102,20,0
CC(C)Oc1ccc(C(=O)NCC(=O)N2CCN(S(=O)(=O)/C=C/c3ccccc3)CC2)cc1,107,105,1,4
Cc1onc(C(=O)NN)c1-c1csc(-c2ccccc2)n1,101,104,-2,17
Cc1c2cnn(CC(=O)Nc3ccc4c(c3)OCCO4)c(=O)c2c(C)n1Cc1ccc(F)cc1,104,104,-5,-3
NC1(C(=O)O)CCCC1,102,101,-3,-16
Cc1ccc(-c2nc(CS(=O)(=O)CC(=O)NCC3CCCO3)c(C)o2)cc1 (configuration not stated),102,108,-18,9
CCCN(CCC)C(=O)Cn1c(=O)n(CCCCC(=O)NCc2ccc3c(c2)OCO3)c(=O)c2ccccc21,101,102,5,-3
Cc1nnsc1-c1onc(C)c1C(N)=O,102,103,-9,3
CCCCC1(CC)NC(=S)N(c2ccc(C)c(C)c2)N1 (configuration not stated),101,103,14,24
O=C1c2ccccc2C(=O)N1CCCc1nn2c(-c3cccnc3)nnc2s1,105,101,-17,64*
CC1CCCCC1N=C1NC(C)(C)CS1 (configuration not stated),103,108,/,-4
O=C(N/N=C/c1ccc(Cl)cc1)c1cc(=O)nc2sccn12,105,96,-21,16
O=C(Cn1c(-c2ccccc2)cc2ccccc21)NC1=NCCS1,103,97,-37,43
O=C(CN1CCSc2ccccc21)NC1CC1,107,108,-12,-6
CCCN(Cc1nnc(-c2ccco2)o1)C(=O)/C=C/c1c(C)nn(C)c1C,102,98,-27,18
CC1CC(=O)Nc2ccccc2N1C(=O)CN1CCCCC1 (configuration not stated),101,104,-3,-7
N#CCn1c(COC(=O)c2ccc3c(c2)OCO3)nc2ccccc2c1=O,108,102,-26,-7
O=C(NC1CCCC1)c1[nH]nc2c1CCc1ccccc1-2,102,103,-26,63
CN1CCN(c2cc(Cl)c(C#N)cc2F)CC1,102,104,7,/
COc1ccc(C2C(C(=O)N3CCCC3)CC(=O)N2c2ccc(OC)cc2)cc1 (configuration not stated),100,100,-1,-8
O=C(OCC(=O)c1c[nH]c2ccccc12)C1=COCCO1,104,103,-4,14

# Complete entries as entered above. Values in the order: Polio RdRp inh | Polio RdRp inh intensity | Mtb MenB inh | MbtI inh
# Listed for `CCc1c(O)nc(N)[nH]c1=O` = 101 | 103 | 3 | -2
# Listed for `COc1ccc(C2C(C(=O)N3CCCC3)CC(=O)N2c2ccc(OC)cc2)cc1` (configuration not stated) = 100 | 100 | -1 | -8

# Next compounds follow.
SMILES,Polio RdRp inh,Polio RdRp inh intensity,Mtb MenB inh,MbtI inh
O=C(O)CS(=O)(=O)Cc1ccccc1,102,102,-35,3
COC(=O)c1ccc(NC(=O)COc2cccc3ccccc23)cc1,102,106,-36,/
O=C(c1ccc(=O)[nH]n1)N1CCN(S(=O)(=O)c2ccc(Br)s2)CC1,101,111,-20,6
Cc1c(C(=O)c2ccncc2)c2ccccn2c1CCC#N,97,104,-90,-2
CC(C)(C)C1CCc2c(sc3nc(-c4ccccc4)cn23)C1 (configuration not stated),100,105,-18,5
Cc1ccc(C)c(OC(=O)c2cccnc2Cl)c1C,100,104,/,-10
CCSc1nnc(NC(=O)c2oc3ccccc3c2COC)s1,103,107,3,6
O=C(O)CNS(=O)(=O)c1ccccc1,105,107,-15,-6
CC1CCCN(c2ccc(C(=O)NCc3ccccc3)cn2)C1 (configuration not stated),102,103,-44,1
O=C1OC2(CCCC2)OC(=O)C1=Cc1ccc(N2CCOCC2)o1,127,137,-491,1
O=C(CN1C(=O)c2ccccc2C1=O)Nc1ccc(F)cc1,101,104,6,-5
O=C(Nc1nc2nc(-c3ccccc3)cc(-c3ccccc3)n2n1)c1ccccc1,99,98,-16,-12
Nc1ccc(Oc2ccc(C(=O)O)c(C(=O)O)c2)cc1,102,100,-42,-11
CN1C(=O)C(C)(C)c2cc(S(=O)(=O)NCCN3CCN(c4ccccc4F)CC3)ccc21,100,105,8,-7
O=C(CSc1ccc(Cl)cc1)N1CCc2ccccc21,99,95,-4,-9
O=C(CC(NC1CCCCC1)C(=O)O)c1ccc(C2CCCCC2)cc1 (configuration not stated),112,107,-5,/
O=C(CCCn1c(=S)[nH]c2ccccc2c1=O)N1CCc2ccccc21,101,100,-13,-3
COC(=O)C1=C(C)N(C(C)c2ccccc2)C(=O)C1 (configuration not stated),102,103,7,9
N#Cc1cnc(SCC(=O)N2CCCCC2)nc1N,103,105,7,18
CCN1C(=O)NC(=O)/C(=C\c2cn(CC(=O)O)c3ccccc23)C1=O,105,101,-127,6
CCOC(=O)c1ccc2[nH]c(C)c(C)c2c1,102,105,-4,-2
CC(C)S(=O)(=O)c1csc(C(=O)NN)c1-n1cccc1,104,106,-8,9
CC(C)(CS)C(=O)N1CCC[C@@H]1C(=O)O,100,101,-6,-21
Cc1c(C(=O)O)nn(-c2ccc(Cl)cc2)c(=O)c1C#N,103,104,-6,/
O=C1c2ccccc2C(=O)N1CSc1ncccn1,103,104,-28,-4
# More results
SMILES,Polio RdRp inh,Polio RdRp inh intensity,Mtb MenB inh,MbtI inh
CC(C)c1cccc(NC(=O)CCc2n[nH]c(=O)[nH]c2=O)c1,/,/,-12,-5
CC(CCc1ccco1)Nc1nc(-c2ccccc2F)no1 (configuration not stated),99,102,-17,-14
O=C(COc1ccc(Cl)cc1)Nc1ccc2c(c1)CCCN2C(=O)C1CC1,101,106,-20,6
N#CCSc1nc2cc3c(cc2c(=O)n1CCCC(=O)NCc1ccc2c(c1)OCO2)OCO3,98,103,0,-18
CCCCN(C)C(=O)c1noc2c1COc1ccccc1-2,104,104,-3,7
CC(Sc1nc2sc3c(c2c(=O)n1C)CCCC3)C(N)=O (configuration not stated),/,/,-7,-4
CC(NC(=O)Nc1ccc2c(c1)N(C)C(=O)c1ccccc1S2)c1ccccc1 (configuration not stated),102,96,-36,-7
Cc1ccc2nc(C)c3c(c2c1)N(c1ccccc1)CC3,89*,89*,1,-188
CCOC(=O)C1CCC(CN(Cc2ccccc2)S(=O)(=O)c2ccc(F)c(C)c2)CC1 (configuration not stated),101,103,-18,-2
CC1=NC(C(F)(F)F)(C(F)(F)F)N=C(N2CCCCC2)O1,101,107,-28,-8
CCn1cc(C(=O)Nc2ccc(OC)cc2)c(=O)c2ccc(C)nc21,100,100,-4,3
CC(C)NC(=O)Nc1cccc(Cl)c1,98,101,3,2
CN(Cc1ccccc1)C(=O)c1cnc2n(c1=O)CCS2,101,102,-7,-2
CCC(=O)Nc1ncnc2sc3c(c12)CCCC3,101,106,/,3
O=C1CCC(c2ccc(Br)cc2)=NN1,100,101,-8,4
N#CCSc1nnc(C2COc3ccccc3O2)o1 (configuration not stated),106,110,-23,-5
O=C(/C=C/c1cccs1)N1CCCC1,102,106,/,8
Nc1cccc(C(=O)Nc2nccs2)c1,106,115,-18,/
COC(=O)c1sc(N)c(C(=O)OC)c1CSc1nnc(Cc2csc(C)n2)o1,108,103,-20,6
Cc1onc(-c2c(Cl)cccc2Cl)c1N(C)C(=O)N1CCCCC1,103,101,-20,-9
CC1CCCC(C)N1C(=O)CCN1C(=O)C2C3C=CC(C3)C2C1=O (configuration not stated),105,104,-3,-15
O=C(c1ccc(Cl)cc1)c1coc2c1cc(O)c1ccccc12,108,101,-16,2
Cc1ccc(S(=O)(=O)Nc2ccc(OC3OC(CO)C(O)C(O)C3O)cc2)cc1 (configuration not stated),104,100,-9,-6
CNS(=O)(=O)c1ccc2c(S(=O)(=O)NC)c(OC)ccc2c1,96,105,1,0
COc1ccc(S(=O)(=O)N(C)c2ccnc(C(=O)N3CCC4(CC3)OCCO4)c2)cc1,104,102,-11,-25

# 3 of the compounds above, with tabs.
smiles	Polio RdRp inh	Polio RdRp inh intensity	Mtb MenB inh	MbtI inh
Nc1cccc(C(=O)Nc2nccs2)c1	106	115	-18	/
CCC(=O)Nc1ncnc2sc3c(c12)CCCC3	101	106	/	3
O=C(/C=C/c1cccs1)N1CCCC1	102	106	/	8

# Further structures
SMILES,Polio RdRp inh,Polio RdRp inh intensity,Mtb MenB inh,MbtI inh
CCN1C(=O)c2ccc(C(=O)Nc3cc(C(=O)O)cc(C(=O)O)c3)cc2C1=O,101,95,-28,-5
Cc1oc2cc(O)ccc2c(=O)c1-c1ccccn1,100,104,/,-16
Cc1oc2cc(Br)c(O)c(Br)c2c1-c1ccccc1,103,106,-23,-8
Cc1nn(-c2ccccc2)c2c1P(=S)(N1CCOCC1)N(C)C(c1ccccc1)=N2 (configuration not stated),82*,85*,-5,80
O=C(COc1ccccc1)N(Cc1cccs1)C1CCS(=O)(=O)C1 (configuration not stated),101,104,6,-3
CC(=O)Nc1ccc(SCC(=O)Nc2cccc3nsnc23)cc1,104,108,-21,-18
CC(C(=O)O)N1CCCC1=O (configuration not stated),102,102,-6,0
COC(=O)c1cc(NC(=S)NN2CCOCC2)cc(C(=O)OC)c1,99,100,45*,4
O=C(O)c1cc2c(ccc3ccccc32)oc1=O,100,103,-1,/
CC1C(C#N)=C(N)OC2=C1C(=O)CCC2 (configuration not stated),105,100,-43,-17
O=C(C1CCCCC1)N1CCN(c2ccc(N3CCCCCC3)nn2)CC1,103,103,-3,-15
COc1cccc2c1CCN(Cc1cccc(C)c1)C2=O,102,101,-8,-3
CCOC(=O)Cn1c(=O)oc2cc(S(=O)(=O)N(C)c3ccc(OC)cc3OC)ccc21,100,104,-3,0
NS(=O)(=O)c1ccc(N=P(N2CCOCC2)(N2CCOCC2)C23CC4CC(CC(C4)C2)C3)cc1,102,103,14,27
CC(C)c1ccccc1NC(=O)CN1C(=O)CCC1=O,107,116,9,-14
COc1ccc(CCNC(=O)CSc2nncn3c2cc2oc(C)cc23)cc1OC,103,105,-8,11
Cn1nnc(C(O)CN2CCOCC2)n1 (configuration not stated),99,103,24,-9
Cc1ccc2c(c1)c(N=NC(=O)CCc1ccccc1)c(O)n2C(C)C,102,101,-30,20
Cc1ccc(S(=O)(=O)N2CCCCC2)cc1C(=O)N1C(C)CCCC1C (configuration not stated),99,101,/,-4

# Results in Polio RdRp inh and Polio RdRp inh intensity, for six of the compounds above:
SMILES | Polio RdRp inh | Polio RdRp inh intensity
CCOC(=O)C1CCC(CN(Cc2ccccc2)S(=O)(=O)c2ccc(F)c(C)c2)CC1 (configuration not stated) | 101 | 103
CC1=NC(C(F)(F)F)(C(F)(F)F)N=C(N2CCCCC2)O1 | 101 | 107
CCn1cc(C(=O)Nc2ccc(OC)cc2)c(=O)c2ccc(C)nc21 | 100 | 100
CC(C)NC(=O)Nc1cccc(Cl)c1 | 98 | 101
CN(Cc1ccccc1)C(=O)c1cnc2n(c1=O)CCS2 | 101 | 102
CCC(=O)Nc1ncnc2sc3c(c12)CCCC3 | 101 | 106

# The order is random. Share with any hit: about 1.7%.
